# Screening data deposited in PubChem BioAssay by National Center for Advancing Translational Sciences (NCATS).
# VDR inhibitor: inhibitors of human vitamin D receptor | P11473 | VDR-SRC2-3 peptide fluorescence polarization, 2 h | Potency, µM, inactives show max response, negative = inhibition, usual class: inhibitors | actives 0.93% (n = 400,000); active = well fitted inhibition curve with a large enough effect; inconclusive = small, poorly fitted or top-dose-only effect, or another doubt; inactive = no such curve, though single readings can be large or run the other way; note: series mostly up to about 120 µM
# Target sequence (P11473 whole entry, looked up): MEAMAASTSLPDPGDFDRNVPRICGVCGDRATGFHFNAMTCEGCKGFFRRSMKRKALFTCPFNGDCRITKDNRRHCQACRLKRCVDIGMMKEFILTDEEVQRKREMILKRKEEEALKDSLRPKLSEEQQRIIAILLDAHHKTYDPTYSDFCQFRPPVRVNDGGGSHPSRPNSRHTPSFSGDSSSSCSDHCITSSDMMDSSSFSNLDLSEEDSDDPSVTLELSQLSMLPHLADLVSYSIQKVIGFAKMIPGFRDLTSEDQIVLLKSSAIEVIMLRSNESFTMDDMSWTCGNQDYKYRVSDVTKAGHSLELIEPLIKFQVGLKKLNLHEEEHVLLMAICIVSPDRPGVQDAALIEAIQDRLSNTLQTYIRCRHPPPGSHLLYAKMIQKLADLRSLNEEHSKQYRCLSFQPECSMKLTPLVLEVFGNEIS
#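 Reagent solutions, kept cold and dark, are dispensed first; compounds are then pinned in at 23 nl, plates briefly spun, and incubated 2 h at ambient temperature. Inhibition of VDR–SRC2-3 peptide binding is read by fluorescence polarization.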
# Numbers without * were called inactive; u = inconclusive; & = joins results of further samples; ! = not active in a repeat. % is set by controls: 0 for no effect and ±100 for the full control effect; potency is the fitted concentration of half-maximal effect.
SMILES,VDR inhibitor
C=C[C@H]1CN2CC[C@@H]1C[C@H]2[C@@H](O)c1ccnc2ccccc12,1%&8%
CN1CCN(c2ccc(C(F)(F)F)cc2N)CC1,-14%
CCC1C2CC3C4N(C)c5ccccc5C45CC(C2C5O)N3[C@@H]1O (stereo not given in full),-21%
O=C(N=Nc1c(O)[nH]c(=O)[nH]c1=O)C1COc2ccccc2O1 (stereo not given),u
CCN(C[C@H]1N[C@@](C)(C(=O)OC)[C@H]2C(=O)N(Cc3ccccc3)C(=O)[C@@H]12)S(=O)(=O)c1ccc(C)cc1,u
CC1(C)CC(=O)C=C(NCCN2CCN(C(=O)Cc3ccc(Cl)cc3)CC2)C1,-2%
CCN(CC)c1ccc(/C=C2/C(=O)NC(=O)N(CC3CCCO3)C2=O)cc1 (stereo not given),-3%
CC1c2ccccc2-n2nncc2CN1C (stereo not given),-21%
CCCCn1c(=O)c(C=Nc2cc([N+](=O)[O-])ccc2OC)c(O)n(CCCCl)c1=O,8%
CCN(CC)CCCN=Cc1c(O)n(-c2cccc(C)c2C)c(=O)[nH]c1=O,2%
COC(=O)c1c(C)n(Cc2ccccc2)c2ccc(O)cc12,-2%
CC1=CC2/C=C(\C)CCC(O)C(O)/C=C/C(=O)C23C(=O)NC(CC(C)C)C3C1C (stereo not given),22µM*
O=C(O)c1nn(Cc2ccc(Cl)cc2Cl)c2ccccc12,u
N=c1ccccn1Cc1ccccc1,-16%
COc1cccc(OC)c1CN1CCCC(C(=O)c2cccc(Cl)c2)C1 (stereo not given),-22%
Cc1ccccc1-c1ccc2n1Cc1cnnn1-c1ccccc1-2,-5%
Cc1cc(OCC(=O)N2CCN(CCc3ccccn3)CC2)cc(C)c1Cl,8%
COC1=CC(=O)O[C@@H](/C=C\c2ccccc2)C1,2%
Cc1nc2cc(-c3ccccc3)nn2c(C)c1CCC(=O)N1CCC2(CC1)OCCO2,6%
CCOP(=O)(OCC)C1(C(=O)O)CCCC1,1%
CCn1c(O)c(C=Nc2ccc(N3CCOCC3)c(Br)c2)c(=O)n(CC)c1=S,-11%
Cc1ccc(N2C(=O)NC(=O)C3(Cc4ccccc4N4CCCC43)C2=O)cc1 (stereo not given),1%
CCCc1nc2ccccc2c(=O)n1-c1ccc(O)cc1,-3%
c1csc(CN2CC3(CCNCC3)C2)n1,2%
CCCCCCCCCC[n+]1cccc([C@@H]2CCCN2C)c1,-22%
CCCCCCCCCCCCn1ccc(=N)cc1,-6%
CC1CCCN(C(=O)CN2C3CCC2CC(O)(c2ccc(F)cc2)C3)C1 (stereo not given),17%
CCOc1ccc(-c2cc(C)[n+](CCc3ccc(OC)c(OC)c3)c(-c3ccc(OCC)cc3)c2)cc1,-21%
CC[C@H]1OC(=O)C[C@@H](O)[C@H](C)[C@@H](O[C@@H]2O[C@H](C)[C@@H](O[C@H]3C[C@@](C)(O)[C@@H](O)[C@H](C)O3)[C@H](N(C)C)[C@H]2O)[C@@H](CC=O)C[C@@H](C)C(=O)/C=C/C(C)=C/[C@@H]1CO[C@@H]1O[C@H](C)[C@@H](O)[C@@H](OC)[C@H]1OC,-14%
Cc1ccc2c(c1)C1CN(C)CCC1N2C(=S)Nc1cccnc1 (stereo not given),-4%
CC(=O)Nc1ccc(C(=O)OCC(=O)Nc2ccc(Cl)cc2C(=O)c2ccccc2)cc1,-5%
Cc1c(C(=O)c2cccc3ccccc23)c2cccc3c2n1[C@@H](CN1CCOCC1)CO3,11%
Cc1ccc(N)c(C)c1,-6%
C[C@@H]1O[C@@H](O[C@@H]2C=C3CCC4C(CC[C@]5(C)[C@@H](c6ccc(=O)oc6)CC[C@]45O)[C@@]3(C)CC2)[C@H](O)[C@H](O)[C@H]1O (stereo not given in full),-17%
CC(=O)O[C@H]1CCC2C3CCC4=CC(=O)CCC4=C3C=C[C@@]21C (stereo not given in full),-28%
N[C@@]1(C(=O)O)CC[C@H](C(=O)O)C1,9%&4%&9%
CCc1ccc(OCC(=O)N2CCN(CCc3ccncc3)CC2)cc1,7%
Cc1ccc(C2SCC(=O)Nc3c2c(=O)[nH]n3C2CCOC(C)(C)C2)cc1 (stereo not given),3%
C=CCN(CC=C)C(=O)CCN1CC1C (stereo not given),5%
CC(C)(C)NC(=O)CN1CCCN(C(=O)COc2ccc(Cl)c3ccccc23)CC1,5%

# 2 entries from above in another layout:
mol | VDR inhibitor
CCN(C[C@H]1N[C@@](C)(C(=O)OC)[C@H]2C(=O)N(Cc3ccccc3)C(=O)[C@@H]12)S(=O)(=O)c1ccc(C)cc1 | u
CC1(C)CC(=O)C=C(NCCN2CCN(C(=O)Cc3ccc(Cl)cc3)CC2)C1 | -2%

# Other entries follow.
SMILES,VDR inhibitor
COc1ccc2ccc(O)c(CN3CC=C(c4ccccc4)CC3)c2c1,-3%
NS(=O)(=O)c1ccc(N=Cc2c(O)n(-c3ccccc3)c(=O)[nH]c2=O)cc1,-6%
CC(=O)N(C1=NCCCS1)c1ccc(F)cc1,4%
CNCCc1c[nH]c2ccccc12,-9%
CC(C)c1oc(=O)cc2c1[C@@H](O)[C@H]1OC(=O)[C@@]3(C)CC[C@@H](O)[C@@]2(C)C13 (stereo not given in full),-15%
CCC1(c2cccc(O)c2)CCCCN(C)C1 (stereo not given),-15%
CCCn1cc(C(=O)O)cn1,20%
CCn1c(C)c(C(=O)NCCc2ccccc2)c2cc(OC)ccc21,-18%
O=C1CC(c2ccc(F)cc2)c2c(c3ccccc3oc2=O)O1 (stereo not given),-20%
CCOC(=O)c1c(N)n(CCN2CCOCC2)c2nc3ccccc3nc12,2%
CCOc1ccc(NC(=O)N2C[C@H]3C[C@@H](C2)c2cccc(=O)n2C3)cc1,-19%
Nc1ccccc1C(=O)OCC(=O)Nc1ccc(Br)cc1F,3%
CCc1ccc(N2C(=O)NC(=O)/C(=C\C=C\c3ccco3)C2=O)cc1,u
N#Cc1ccc(CN2CC[C@@]3(CCCNC3)C2)cc1,-5%
Cc1ccccc1NC(=NCCCN1CC1)Nc1ccccc1C,-21%
COC(=O)C1=C(c2ccccc2)C[C@@H]2CC[C@H]1N2C(=O)NCC1CC1,-7%
Cc1cccc(N2CCC3(CC2)C(=O)NC(=O)NC3=O)c1,-3%
CCc1cccc2c(C#N)cn(CC(=O)N3CCOCC3)c12,-4%
CN(C)c1cc[n+](CC(O)C[n+]2ccc(N(C)C)cc2)cc1,-3%
Cc1ccccc1C(O)(Cc1ccccc1)C1CN2CCC1CC2 (stereo not given),16%
COC(=O)C1=C(c2ccc(F)cc2F)C[C@@H]2CC[C@H]1N2C(=O)NCc1ccc(C(F)(F)F)cc1,-13%
Clc1ccc(CNC2CN3CCC2CC3)cc1 (stereo not given),-2%
O=C(Cc1cc(=O)[nH]c(=O)[nH]1)N1CCN(CCO)CC1,-22%
OC(CN1CCC(c2c[nH]c3ccccc23)CC1)C(F)(F)F (stereo not given),7%
CCc1ccc(NC(=O)CCNC(=O)N2C[C@H]3C[C@@H](C2)c2cccc(=O)n2C3)cc1,-13%
Cc1ccc2c(c1)C(c1ccccc1)=NCC(=O)N2,15%
CC/C=C\C/C=C\C/C=C\C/C=C\C/C=C\CCCC(=O)NC(C)C(=O)O (stereo not given),u
CC(C)(O)[C@@H]1C2OC(=O)[C@@H]1[C@]1(O)C[C@H]3O[C@]34C(=O)O[C@H]2[C@]14C (tested in a mixture with another compound),u
Cc1ccc(N)c(C(=O)c2ccccc2)c1,13%
CC(NS(=O)(=O)OCC(Cl)(Cl)Cl)c1ccccc1 (stereo not given),-9%
COc1ccc(C)cc1NC(=O)c1cccn(Cc2cccc([N+](=O)[O-])c2)c1=O,13%
Cc1cc(NC(=O)CCl)no1,12%
COP(=S)(OC)c1c(C)nn(CCC#N)c1NC(=O)c1ccc(Cl)cc1,-13%
O=C1/C(=C\c2ccncc2)N2CCC1CC2,-10%
CCCCC/C=C\C/C=C\C/C=C\C/C=C\CCCC(=O)NCC(=O)O,40µM*!
Cc1cccc(-c2nn3c(=O)cc(CN4CCN(C(=O)COc5ccc(Cl)cc5)CC4)nc3s2)c1,23%
Cc1ccc(-c2ccc(=O)n(CC(=O)N3CCC4(CC3)OCCO4)n2)cc1,23%
CCC(C)C12CN3CCN(CC(C)(C3)C1O)C2 (stereo not given),5%
O=C(NC1CC1)c1cn(Cc2ccccc2)nc1-c1ccccc1,9%
[N-]=[N+]=NCCN1CCC(O)CCC1=O (stereo not given),-12%
Cc1ccc2c(c1)[C@@H]1CN(C)CC[C@H]1N2,4%
CC1=NN(c2ccccc2)C(=O)C1/C=C1\C(=O)NC(=O)N(c2cc(C)cc(C)c2)C1=O (stereo not given),-17%
CC(C)n1cnc2c(C(=O)N[C@H]3CN4CCC3CC4)cc(Cl)cc21,-23%
N[C@@H](Cn1ccc(=O)[nH]c1=O)C(=O)O,-2%
C[C@@H]1CN(C2CCC(C#N)(c3ccc(F)cc3)CC2)CC[C@]1(C(=O)O)c1ccccc1 (stereo not given in full),-3%
C[N+]1=C(/C=C/Nc2ccccc2)C(C)(C)c2ccccc21,-8%
COc1ccc(OC)c(CN2CCN(C(=O)COc3cccc(C)c3)CC2)c1,2%
CC(C)OC12Oc3ccccc3C=C1N1CCC2CC1 (stereo not given),-2%
COc1ccccc1-n1c(O)c(/C=N/N2CCCCC2)c(=O)n(-c2ccccc2OC)c1=S,-4%
CCCCCCCCc1[se]c2ccccc2c1[Se]c1ccccc1,1%
CC[C@@]1(O)C(=O)OCc2c1cc1n(c2=O)-c2cc3ccccc3nc2C1,-2%&5%&7%
C/C(=N\NC(=O)c1ccccc1O)c1c(O)n(Cc2ccccc2)c(=O)[nH]c1=O,0%
COc1ccccc1CCNCc1ccc(OC)c(OC)c1OC,-5%
CC1(C)[C@@H](C=C(Cl)Cl)[C@@H]1C(=O)OCc1c(F)c(F)cc(F)c1F,-13%
COc1cccc(-c2nc(CS(=O)CC(=O)N3CCC4(CC3)OCCO4)c(C)o2)c1 (stereo not given),-6%
O=C1NC(=O)C(=Cc2ccc3ccccc3c2)C(=O)N1,u
CC1CN1P1(=O)OCC(C)([N+](=O)[O-])CO1 (stereo not given),2%
COc1nc(NC(C)C)nc(NC(C)C)n1,-8%&4%
C/C(=N\N1CCCCCC1)c1c(O)n(-c2ccc(C)cc2)c(=O)[nH]c1=O,-23%
c1cc2c(cc1CCNC1C3CC4CC(C3)CC1C4)OCO2 (stereo not given),0%
# (further entries)
SMILES,VDR inhibitor
COc1ccc(OC)c(CCNCc2c(C(=O)O)c(C)n(Cc3ccc(F)cc3Cl)c2C)c1,13%
CCCC(=O)Nc1ccc(N2CCN(CC)CC2)c(Cl)c1,-4%
c1cnc(N2CC[C@@]3(CCCNC3)C2)nc1,u
C[C@]12CCC3C(CC[C@H]4C[C@@H](O)CC[C@]34C)C1C[C@@H](Br)[C@@H]2O (stereo not given in full),8%
CN1CCC(c2c[nH]c3ccc(O)cc23)CC1,-2%&-3%
CC(=NCCCN1CCOCC1)c1c(O)[nH]c(=O)[nH]c1=O,6%
O=C1NC2C(=CC(O)C(O)C2O)c2cc3c(c(O)c21)OCO3 (stereo not given),-1%
O=C(Nc1cc(C(F)(F)F)cc(C(F)(F)F)c1)c1cccn(Cc2ccccc2Cl)c1=O,14%
Cc1ccc2occ(CN3CC4CC(C3)c3cccc(=O)n3C4)c(=O)c2c1 (stereo not given),15%
CCOC(=O)Cn1cc(C=C2C(=O)N(C)C(=O)N(C)C2=O)c2ccccc21,-3%
COC(=O)C1C2c3ccccc3C(c3ccccc32)C1C(=O)OC (stereo not given),-9%
Clc1ccccc1CN1CCN(c2ccccc2)CC1,7%
O=c1cccc2n1CC1CC2CN(S(=O)(=O)c2ccc(F)cc2)C1 (stereo not given),6%
Cc1c(C(=O)N2CCC3(CC2)OCCO3)sc2ncnc(N3CCN(c4ccccn4)CC3)c12,-5%
CN1CCN(C(=O)COc2ccc3ccccc3c2Br)CC1,0%
Cc1ccc(NP(=O)(Nc2ccc(C)cc2)Oc2ccccc2)cc1,0%
O=C1CCCC2C3CCCN4CCCC(CN12)C34 (stereo not given),-17%
Cn1ncnc2c(=O)n(C)c(=O)nc1-2,-6%
O=c1c2ccccc2nc(/C=C/c2ccc3c(c2)OCO3)n1-c1ccccc1,7%

# Structures from the list above containing a Cl atom (18):
SMILES,VDR inhibitor
CC1(C)CC(=O)C=C(NCCN2CCN(C(=O)Cc3ccc(Cl)cc3)CC2)C1,-2%
CCCCn1c(=O)c(C=Nc2cc([N+](=O)[O-])ccc2OC)c(O)n(CCCCl)c1=O,8%
O=C(O)c1nn(Cc2ccc(Cl)cc2Cl)c2ccccc12,u
COc1cccc(OC)c1CN1CCCC(C(=O)c2cccc(Cl)c2)C1 (stereo not given),-22%
Cc1cc(OCC(=O)N2CCN(CCc3ccccn3)CC2)cc(C)c1Cl,8%
CC(=O)Nc1ccc(C(=O)OCC(=O)Nc2ccc(Cl)cc2C(=O)c2ccccc2)cc1,-5%
CC(C)(C)NC(=O)CN1CCCN(C(=O)COc2ccc(Cl)c3ccccc23)CC1,5%
Clc1ccc(CNC2CN3CCC2CC3)cc1 (stereo not given),-2%
CC(NS(=O)(=O)OCC(Cl)(Cl)Cl)c1ccccc1 (stereo not given),-9%
Cc1cc(NC(=O)CCl)no1,12%
COP(=S)(OC)c1c(C)nn(CCC#N)c1NC(=O)c1ccc(Cl)cc1,-13%
Cc1cccc(-c2nn3c(=O)cc(CN4CCN(C(=O)COc5ccc(Cl)cc5)CC4)nc3s2)c1,23%
CC(C)n1cnc2c(C(=O)N[C@H]3CN4CCC3CC4)cc(Cl)cc21,-23%
CC1(C)[C@@H](C=C(Cl)Cl)[C@@H]1C(=O)OCc1c(F)c(F)cc(F)c1F,-13%
COc1ccc(OC)c(CCNCc2c(C(=O)O)c(C)n(Cc3ccc(F)cc3Cl)c2C)c1,13%
CCCC(=O)Nc1ccc(N2CCN(CC)CC2)c(Cl)c1,-4%
O=C(Nc1cc(C(F)(F)F)cc(C(F)(F)F)c1)c1cccn(Cc2ccccc2Cl)c1=O,14%
Clc1ccccc1CN1CCN(c2ccccc2)CC1,7%

# The list is partial; count on the stated rates, not on these rows.
